Compound activity deposited in PubChem BioAssay by several laboratories.
Sa RN4220 lethal: S. aureus RN4220 growth inhibition; OD600, 16 h; inhibition, % (test concentration not listed); actives 0.33% (n = 330,000); AID 1259311;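 active = z-score of -3 or lower and OD600 up to 0.18 on both plates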;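 also: plate controls were untreated cells for no effect and reference antibiotic for full effect; stock transfer was 100 nL into about 80 µL; one replicate is shown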
BJeLR lethal: BJeLR cell viability loss; BJeLR (HRASV12) viability, CellTiter-Glo ATP luminescence, 48 h; reference of the scale not given here; inhibition, % (concentration not given with the values); AID 1554; actives 0.17% (n = 300,000);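 active = replicate mean above 50%; inconclusive = above 50% but judged a plate artefact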;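 also: 50 nL library stock added to about 25 µL; numbers are from one replicate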
ugtP null kill: kills S. aureus RN4220 lacking UgtP; S. aureus RN4220 ugtP deletion, OD600 growth, 16 h; some inactives read as strong as hits; actives 0.54% (n = 330,000); growth inhibition, % (test concentration not listed); AID 1259309;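 active = z-score under -3 and OD600 up to 0.15 on both plates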;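 also: plate controls were untreated wells for no effect and antibiotic for full effect; wells of about 80 µL received 100 nL stock; the first replicate is given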
Autofluor counter: compound fluorescence in toxin protease inhibitor counterscreen | compound autofluorescence counterscreen, microsphere flow cytometry; stronger effect = higher value | fluorescence intensity (test concentration not listed) | actives 3.1% (n = 360,000) | AID 624483;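 active = at least 3 SD above the mean of all compounds, about 16000 in these data; inconclusive = too few beads counted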;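 also: 100 nL of 1 mM stock went into each well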
PrP UTR inh: inhibition of PrP 5' UTR reporter expression. cell-based PrP 5' UTR mRNA reporter, plate reader. inhibition, % (test concentration not listed). actives 0.35% (n = 340,000). AID 488862;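 active = every replicate at 50% or more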;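 also: 0 = median of the neutral control wells; tested in H4 reporter cells; numbers are from one replicate; inactives centre near -14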
Mtb hypoxia rep: reduces hypoxia-regulated biosensor signal in M. tuberculosis. M. tuberculosis hypoxia-regulated fluorescent reporter, fluorescence. fluorescence inhibition, % (test concentration not listed). actives 0.1% (n = 300,000);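 active = 35 to 45% if threefold the growth effect, above 45% if 1.5-fold the growth effect; inactive = the rest, general growth blockers included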;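 also: wells of about 50 µL received 100 nL stock; 0% = vehicle wells and 100% = reference inhibitor wells; whole bacteria with a GFP reporter of the hypoxia response; strong numbers were not always called active; many hits fall short of the cut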
Mtb hypoxia rep growth: also measured in Mtb hypoxia rep; calls as there; growth inhibition, %; measured here: M. tuberculosis growth (absorbance);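 0% = vehicle and 100% = reference antibiotic; read after six days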
* marks the source's active call; other numbers are inactive results; u = inconclusive; x = no result given.

SMILES	Sa RN4220 lethal	BJeLR lethal	ugtP null kill	Autofluor counter	PrP UTR inh	Mtb hypoxia rep	Mtb hypoxia rep growth
Cc1occc1C(=O)Nc1cccnc1	7.0	-6	4	8484	-35	7	10
COCCCN(CCNC(=O)c1ccc(NC2=NC3CS(=O)(=O)CC3S2)cc1)Cc1ccco1 (stereo not given)	-13	4	-7	4193	-3	-2	8
Cc1cc(NS(=O)(=O)c2ccc(NC(=O)c3ccc(Cl)cc3[N+](=O)[O-])cc2)no1	2.7	-16	7	5518	-19	15	-18
CC1CCN(C(=O)CCc2ccc(S(=O)(=O)NC(C)(C)C)cc2)CC1	5.8	-3	0	7874	-7	12	0
C#CCN1C(=O)C2(OCCO2)c2ccccc21	5.0	-22	6	3365	-12	-2	5
O=C(NNc1cccc(Cl)c1)c1cccnc1Cl	-12	3	-16	2653	-15	-11	-7
COc1cc(C=NNC(=O)C(=O)NCC2CCCO2)cc(Cl)c1O (stereo not given)	-0.8	x	1	x	x	4	3
COc1cc(-c2nc3cnccc3n2C)cc(OC)c1OC	0.9	-7	7	4496	2	x	x
CCOC(=O)c1cccc(P(C)(C)=O)c1	-6.7	17	3	2486	-4	3	3
COc1ccc(C)cc1NC(=O)c1cccc(-c2ccc(OC(C)=O)cc2)c1	-3.6	-1	11	6307	-17	9	-1
CCCCS(=O)(=O)N1C2=NC(C(=O)OC)=C(C(=O)OC)C3N(C)c4ccc(OC)cc4[C@]23CC1C(=O)OC (stereo not given in full)	0.7	x	-3	x	x	-6	6
Cc1cc(C)c(NC(=O)CN(c2ccccc2)S(=O)(=O)N(C)C)c(C)c1	0.6	-1	-4	7463	x	1	-2
O=S(=O)(c1ccc(Cl)cc1)N1CCCC(c2nc(-c3ccc(F)cc3)no2)C1 (stereo not given)	-5.8	x	-6	3538	-15	9	1
CC1(C(=O)CSc2nc3ccccc3s2)CCC(=O)O1 (stereo not given)	5.8	2	8	2988	-18	-9	-2
CCOC(=O)C(NCc1ccccc1OC)(NC(=O)c1ccccc1)C(F)(F)F (stereo not given)	5.2	10	5	4337	0	x	x
Cc1ccc2oc(C(=O)NCC(c3ccco3)N(C)C)c(C)c2c1 (stereo not given)	0.5	6	-1	5062	-27	7	6
Cc1ccc2c(c1)[C@H]1OCC[C@H]1[C@@H](c1ccncc1)N2	-1.9	-6	5	4356	7	x	x
O=C1c2cc([N+](=O)[O-])ccc2-c2cc(Cl)c(NC(=O)C(F)(F)F)cc21	1.7	x	1	3459	-9	8	9
Nc1c(C(=O)N/N=C/c2ccc([N+](=O)[O-])cc2)cnn1-c1ccccc1	x	9	x	3587	-27	x	x
CC(=O)c1c(N)nc2n(c1=O)CCCCC2	-1.8	1	-1	4187	-6	x	x
CCN1C(Nc2ccccc2)=NCC1Cc1ccccc1 (stereo not given)	7.9	x	4	x	x	0	-6
Cn1nc(C(C)(C)C)c([N+](=O)[O-])c1C(=O)N1CCCCCC1	1.5	-5	-3	5263	-21	7	4
CSc1nc2c(c(=O)n1Cc1ccccc1)SC(C)C2 (stereo not given)	2.5	0	2	6783	-11	10	2
C=CCNC(=O)CN1CCN(Cc2ccc3c(c2)OCO3)CC1	-4.2	5	-1	2590	-1	3	7
N#CC1=C(S)N(c2ccccc2)C(c2ccc(-c3cccc(Cl)c3)o2)NC1=O (stereo not given)	3.2	3	-11	2545	-24	-1	3
Cc1ccc(OC(C)C(=O)Nc2ccncc2)cc1 (stereo not given)	7.4	12	11	3262	-11	7	8
O=C(C1=C(O)C(=O)N(CCCN2CCOCC2)C1c1ccc(Cl)cc1)c1cc2ccccc2o1 (stereo not given)	8.1	3	0	x	x	-5	7
COc1ccc(/C=C2/C(=N)N3N=C(CC(=O)N4CCCC4)SC3=NC2=O)cc1OC	-5.0	-3	-8	4662	-15	-3	3
COC(=O)c1ccc(CNC(=O)COC(=O)c2cc(Cl)ccc2O)cc1	1.5	x	1	3695	-22	21	44
COc1cc(C2CC(=O)c3c(ccc4ccccc34)N2)ccc1O (stereo not given)	6.8	-7	-3	2431	-77	9	5
CC(CNC(=O)Cn1ccc2cc(S(=O)(=O)N3CCCC3)ccc21)c1ccccc1 (stereo not given)	-1.0	3	1	5928	-7	-4	-12
Cc1ccccc1N1C(=O)C2C3CCC(O3)C2C1=O (stereo not given)	6.1	-3	5	3846	-12	16	8
Cc1ccc(S(=O)(=O)N(C)C)cc1NC(=O)Cn1c(CN2CCOCC2)nc2ccccc2c1=O	5.0	5	-3	4209	-23	6	2
O=C1c2ccccc2C(=O)N1N=Cc1ccc(Oc2ccc([N+](=O)[O-])cn2)cc1	-3.3	x	-1	x	x	10	-1
CC(=O)c1ccc(OCCCC(=O)OCC(=O)N2CCN(c3ccccc3)CC2)cc1	2.0	-1	5	2359	-1	x	x
COc1cc2c(cc1OC)C1Cc3cc4c(cc3C(C2)N1C)OCO4 (stereo not given)	4.2	x	6	x	x	4	8
Cc1nc2ccccc2n1CCc1nc2c3ccccc3nc(SCC#N)n2n1	-0.2	0	6	x	x	6	-3
O=c1cc(N2CCc3ccccc3C2)[nH]c(=O)n1Cc1ccc(F)cc1	2.2	3	1	5954	-7	7	-4
O=C(Nc1ccccc1O)C(c1ccccc1)c1ccccc1	-0.7	11	14	3907	-26	1	2
O=C(NCc1ccccn1)c1cc(-c2ccc(Cl)cc2)nc2ccccc12	3.1	8	-9	2116	-22	11	-1

A stretch from further up, for reference:
SMILES	Sa RN4220 lethal	BJeLR lethal	ugtP null kill	Autofluor counter	PrP UTR inh	Mtb hypoxia rep	Mtb hypoxia rep growth
COc1ccc(/C=C2/C(=N)N3N=C(CC(=O)N4CCCC4)SC3=NC2=O)cc1OC	-5.0	-3	-8	4662	-15	-3	3
COC(=O)c1ccc(CNC(=O)COC(=O)c2cc(Cl)ccc2O)cc1	1.5	x	1	3695	-22	21	44
COc1cc(C2CC(=O)c3c(ccc4ccccc34)N2)ccc1O (stereo not given)	6.8	-7	-3	2431	-77	9	5
CC(CNC(=O)Cn1ccc2cc(S(=O)(=O)N3CCCC3)ccc21)c1ccccc1 (stereo not given)	-1.0	3	1	5928	-7	-4	-12
Cc1ccccc1N1C(=O)C2C3CCC(O3)C2C1=O (stereo not given)	6.1	-3	5	3846	-12	16	8
Cc1ccc(S(=O)(=O)N(C)C)cc1NC(=O)Cn1c(CN2CCOCC2)nc2ccccc2c1=O	5.0	5	-3	4209	-23	6	2
O=C1c2ccccc2C(=O)N1N=Cc1ccc(Oc2ccc([N+](=O)[O-])cn2)cc1	-3.3	x	-1	x	x	10	-1
CC(=O)c1ccc(OCCCC(=O)OCC(=O)N2CCN(c3ccccc3)CC2)cc1	2.0	-1	5	2359	-1	x	x
COc1cc2c(cc1OC)C1Cc3cc4c(cc3C(C2)N1C)OCO4 (stereo not given)	4.2	x	6	x	x	4	8
Cc1nc2ccccc2n1CCc1nc2c3ccccc3nc(SCC#N)n2n1	-0.2	0	6	x	x	6	-3
O=c1cc(N2CCc3ccccc3C2)[nH]c(=O)n1Cc1ccc(F)cc1	2.2	3	1	5954	-7	7	-4
O=C(Nc1ccccc1O)C(c1ccccc1)c1ccccc1	-0.7	11	14	3907	-26	1	2

Carrying on:
SMILES	Sa RN4220 lethal	BJeLR lethal	ugtP null kill	Autofluor counter	PrP UTR inh	Mtb hypoxia rep	Mtb hypoxia rep growth
O=C1C2C(C(=O)N1CCc1ccccc1)C1C=CC2C12CC2 (stereo not given)	5.9	-1	4	10034	0	11	11
O=S(=O)([N-]c1nc2ccccc2nc1-n1cc[n+](Cc2ccccc2)c1)c1ccc(Cl)cc1	x	22	x	5305	-131	x	x
C=CCn1c(C)cc(C(=O)CSc2nnc(-c3cccc(S(=O)(=O)N(CC)CC)c3)o2)c1C	2.0	1	-3	4793	-2	x	x
CCOc1ccc(C(=O)NCC(=O)OCc2nnc(-c3ccccc3)o2)cc1OCC	2.6	x	0	5986	x	4	6
C(=N\Nc1nc(-c2ccccc2)cs1)/c1ccncc1	x	6	x	4339	-57	x	x
Cc1[nH]c(=O)[nH]c(=O)c1S(=O)(=O)N1CCCC(C(=O)NCCc2ccccc2)C1 (stereo not given)	5.8	2	5	3633	-34	x	x
Cc1ccc(NC(=O)COC(=O)CCC(=O)c2cccs2)cc1S(=O)(=O)N1CCOCC1	1.7	-4	-2	5894	7	-5	9
CCOC(=O)c1c(C)n(C)c2ccc(OC)c(NC(=O)CN3CCN(C4CCCCC4)CC3)c12	-0.1	-1	6	u	-27	5	-7
Cc1ccc(NC(=O)CCNC(=O)c2ccccc2Cl)cc1S(=O)(=O)N1CCCCCC1	-3.8	x	-3	5202	-12	-1	1
O=C(CC(C(=O)O)P(=O)(c1ccccc1)c1ccccc1)c1ccc(Br)cc1 (stereo not given)	2.5	0	1	4594	-25	18	-3
COc1cc(C=CC(=O)CC(=O)C=Cc2ccc(O)c(OC)c2)ccc1O	6.1	x	0	x	x	9	1
CC(C)(C)NC(=O)CN(C(=O)CCC(=O)Nc1nccs1)c1cccc(C(F)(F)F)c1	0.1	-9	-1	3698	16	-3	3
Cc1ccc(C(=O)N/C(=C/c2ccco2)C(=O)NCC2CCCO2)cc1 (stereo not given)	4.0	-12	3	2228	-14	9	-2
O=C(Nc1ccc(F)c(Cl)c1)C1CCCN(c2cnccn2)C1 (stereo not given)	x	-1	x	6422	-14	x	x
CCOC(=O)C(Cc1cc(N)c(Oc2ccc(OC)cc2)c(N)c1)NC(C)=O (stereo not given)	3.7	x	0	3507	1	2	3
COc1ccc(-c2[nH]c(-c3cccc(OC)c3)nc2SCC(=O)NCc2ccco2)cc1	-3.4	x	17	5767	-30	7	1
CCOC(=O)Cc1csc(NC(=O)c2cnc3scc(C)n3c2=O)n1	0.2	-7	3	3663	-14	3	3
CC(C)CC(COc1ccccc1)N1CCN(C)CCC1=O (stereo not given)	4.5	x	4	x	x	5	12
O=C(COC(=O)c1ccc(S(=O)(=O)NCc2ccco2)cc1)Nc1ccc(Cl)cn1	5.4	0	2	2149	-9	2	2
Cc1ccc(-c2[nH]c3ccccc3c2SCCN)cc1	-1.6	17	-1	4693	-24	5	-7
CNC(=O)c1[nH]cnc1C(=O)NC(CC(C)C)C(=O)OCc1ccccc1 (stereo not given)	4.9	x	-7	x	x	10	6
C#CCOCCOCCOCCNc1nc(N2CCN(C(=O)C(CCCCN)n3cc(CN)nn3)CC2)nc(N2CCN(C(=O)C(CC(N)=O)n3cc(C(N)C(C)CC)nn3)CC2)n1 (stereo not given)	5.6	x	2	x	x	22	10
CCCCn1c(SCC(=O)N2c3ccccc3Sc3ccccc32)nc2c1c(=O)n(C)c(=O)n2C	-1.5	7	-5	x	-30	1	9
CN(CCNC(=O)c1ccc(C=NO)nc1)Cc1ccccc1	2.5	x	-1	x	x	8	2
Clc1cccc(-c2ccc(C=Nn3cnnc3)o2)c1Cl	2.0	x	1	x	x	1	3
COc1ccccc1CN(C)CC(=O)Nc1cccc2ccccc12	9.3	5	1	4603	0	17	2
COc1ccccc1CNC(=O)CN(C)S(=O)(=O)c1ccc2c(c1)c(=O)n(C)c(=O)n2C	1.4	0	-4	4575	4	1	-9
CCn1cc(CN2CCC(n3nccc3NC(=O)CCCc3ccccc3)CC2)c(C)n1	3.7	2	1	5741	-33	2	-5
CCn1c(=O)c2sccc2n(CC(=O)NC2CCCCC2)c1=O	2.2	-4	15	3874	-11	12	7
CCOC(=O)N1CCN(S(=O)(=O)c2ccc3[nH]c(=O)oc3c2)CC1	2.5	12	0	4935	2	2	7
Cc1ccc(Nc2nc(N)nc(CSc3ncccn3)n2)cc1	5.5	-1	7	2797	-108	0	6
CCOc1ccc(C2C3=C(CC(C)(C)CC3=O)N(CC(=O)O)C3=C2C(=O)CC(C)(C)C3)cc1OCC	3.3	6	6	4227	-9	16	5
COc1cccc(NC(=O)C2COc3ccccc3O2)c1 (stereo not given)	3.0	-2	6	3046	-39	6	1
